Bioassay records: PubChem, several laboratories
GALR2 ag = GALR2 (human) receptor agonism; O43603; GALR2-expressing cells, agonist activation read-out; activation, %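 (tested at 5 µM)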; actives 0.48% (n = 140,000);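 active means above mean plus 3 SD of all compounds, about 5% in these data, not always enough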;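 further: 0% = vehicle buffer wells and 100% = reference agonist at full effect; tested in CHO reporter cells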
Target sequence (O43603 whole entry, looked up): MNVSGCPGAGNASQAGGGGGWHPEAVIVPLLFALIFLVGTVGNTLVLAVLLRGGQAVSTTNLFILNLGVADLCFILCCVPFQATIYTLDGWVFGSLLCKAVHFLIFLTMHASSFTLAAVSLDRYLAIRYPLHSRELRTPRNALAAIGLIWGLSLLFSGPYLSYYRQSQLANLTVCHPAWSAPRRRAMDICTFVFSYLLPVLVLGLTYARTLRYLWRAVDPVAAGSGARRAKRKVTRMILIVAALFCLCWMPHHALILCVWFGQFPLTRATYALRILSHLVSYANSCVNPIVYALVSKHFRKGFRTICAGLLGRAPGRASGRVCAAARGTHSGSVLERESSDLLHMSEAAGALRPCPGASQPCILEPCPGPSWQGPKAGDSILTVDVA
RGS16-Gao = regulators of human RGS16-Galphao interaction | O15492+P09471 | bead-based flow cytometry RGS16-Galphao binding, fluorescence; actives lie on both sides | AID 1441 | actives 0.38% (n = 220,000) | binding response (% of control), % at 10 µM;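 active means below 25% or above 175%, edge rows of some plates excepted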;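 further: Galphao activated by GDP with aluminum fluoride before binding; 100% = wells without compound and 0% = beads without RGS; some results beyond the cut were filed as inactive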
Target sequence (O15492 whole entry, looked up): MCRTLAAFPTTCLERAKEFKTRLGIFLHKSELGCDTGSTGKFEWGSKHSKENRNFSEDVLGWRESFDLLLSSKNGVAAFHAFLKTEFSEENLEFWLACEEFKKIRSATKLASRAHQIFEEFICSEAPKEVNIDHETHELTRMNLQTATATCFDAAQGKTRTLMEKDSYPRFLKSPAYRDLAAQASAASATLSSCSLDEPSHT
Target sequence (P09471 whole entry, looked up): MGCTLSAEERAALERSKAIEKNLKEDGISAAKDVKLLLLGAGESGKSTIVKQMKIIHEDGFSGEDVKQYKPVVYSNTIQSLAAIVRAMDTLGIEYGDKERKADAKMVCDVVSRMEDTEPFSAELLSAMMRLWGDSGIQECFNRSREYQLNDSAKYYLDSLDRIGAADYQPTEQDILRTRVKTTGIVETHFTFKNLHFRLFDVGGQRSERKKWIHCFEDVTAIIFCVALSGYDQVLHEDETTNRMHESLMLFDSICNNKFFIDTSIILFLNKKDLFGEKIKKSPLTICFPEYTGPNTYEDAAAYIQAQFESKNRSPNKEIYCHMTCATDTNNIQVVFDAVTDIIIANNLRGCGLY
PKD1 kinase inh = PKD1 (human) kinase inhibition; inhibition, %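 (about 10 µM by stock and volumes)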; PKD1 kinase fluorescence polarization assay; actives 0.056% (n = 200,000);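 active means inhibition of 50% or more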;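 further: controls were vehicle for no effect and a reference inhibitor for full effect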
Insulin prom inh = TRM-6 insulin promoter activity inhibition; TRM-6 cells (human fetal islet line), insulin promoter-eGFP reporter, imaging; reporter expression induced with tamoxifen; inhibition, % at 2 µM; actives 0.9% (n = 130,000);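 active means inhibition above the mean plus 3 SD, with well images judged a real hit on visual review, cut at about 60% in these data, passing the limit was not always enough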
HSV augment = increases HSV replication in cells | AID 1956 | actives 0.005% (n = 220,000) | HSV replication augmentation in cells, fold increase | maximum fold increase;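 active means peak rise of 1.5-fold or more in the series; tested in PC3 cells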;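 further: first round at 10 µM; read as green reporter fluorescence; hits show the peak of a series up to 25 µM; 1 = signal of infected wells without compound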
Insulin prom inh cell count = second read-out of Insulin prom inh, no call of its own (marks repeat the call); normalized cell count, %; measured here: cell count, toxicity; reference of the scale not given here;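 cells exposed to compound for 48 h; stained nuclei by imaging scaled within each plate; lower means fewer cells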
HSV augment primary fold = recorded beside HSV augment, whose call it bears; fold increase; compound at 10 µM; measured here: primary screen fold increase 10 uM; tested in PC3 cells;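 GFP signal in the first replicate; 1 = infected wells without compound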
* = called active by the depositor; i = inactive; . = not tested or not shown.

The line under a structure holds: Insulin prom inh cell count	GALR2 ag	HSV augment primary fold	HSV augment	Insulin prom inh	PKD1 kinase inh	RGS16-Gao
C=CCNC(=O)C1CCN(c2c([N+](=O)[O-])cc(C(F)(F)F)cc2[N+](=O)[O-])CC1
 : 168	-1.1	0.91	i	0	1	97
CC1(NC(=O)CC[N+](C)(C)CCO)CS(=O)(=O)CC1S(=O)(=O)[O-] (configuration not stated)
 : .	-0.3	0.9	i	.	-7	95
O=C1CN(C(=O)/C=C/c2ccc(Cl)cc2)c2ccccc2N1
 : 179	.	0.84	i	-17	0	102
CCC(Sc1nc(N)c(NC(=O)c2ccc(OC)c(OC)c2)c(=O)[nH]1)C(=O)OC (configuration not stated)
 : .	-4.4	0.87	i	.	12	105
CCC1CCCCN1C(=O)Nc1cc(Cl)ccc1OC (configuration not stated)
 : 94	.	0.91	i	-43	5	106
O=[N+]([O-])c1ccc(C(O)CN=Cc2ccc(O)cc2O)cc1 (configuration not stated)
 : .	.	1	i	.	-1	97
CC(=O)Nc1ccc(S(=O)(=O)Nc2nc(-c3ccc(C(C)(C)C)cc3)cs2)cc1
 : 98	-1.9	1	i	7	-16	103
Nc1nonc1/C(=N/O)N1CCN(CCO)CC1
 : 108	-0.4	0.82	i	14	-7	101
O=C(OCc1ccccc1)Oc1cncc(C(=O)O)c1
 : 41	-0.5	0.82	i	-322	-6	85
COc1ccc(N2CCN(CCCNC(=O)C3CCN(S(=O)(=O)N4CCOCC4)CC3)CC2)cc1
 : 92	.	0.96	i	17	1	145

Some entries already given, showing only HSV augment and Insulin prom inh cell count.
molecule,HSV augment,Insulin prom inh cell count
O=C1CN(C(=O)/C=C/c2ccc(Cl)cc2)c2ccccc2N1,i,179
CCC(Sc1nc(N)c(NC(=O)c2ccc(OC)c(OC)c2)c(=O)[nH]1)C(=O)OC (configuration not stated),i,.
CCC1CCCCN1C(=O)Nc1cc(Cl)ccc1OC (configuration not stated),i,94
O=[N+]([O-])c1ccc(C(O)CN=Cc2ccc(O)cc2O)cc1 (configuration not stated),i,.

(continued)
The line under a structure holds: Insulin prom inh cell count	GALR2 ag	HSV augment primary fold	HSV augment	Insulin prom inh	PKD1 kinase inh	RGS16-Gao
O=C(Nc1ccc(Cl)cc1)N1CCN(c2ccccc2)CC1
 : 127	-0.6	0.9	i	62	1	102
O=C(CCCCC(=O)NC1CCCC1)NC1CCCC1
 : 77	-0.8	1	i	7	-10	100
Cc1ccccc1OCC(=O)NCC(=O)N/N=C/c1cccc([N+](=O)[O-])c1
 : 127	.	0.97	i	12	-2	104
CCc1nc2sccc2c(=O)n1N
 : .	.	0.93	i	.	2	101
CSc1nsc(SCCN2C(=O)c3ccccc3C2=O)n1
 : 132	-1.5	0.86	i	62	-3	103
COc1ccc(C(=O)Nc2nc3ccccc3[nH]2)cc1S(=O)(=O)N1CCCC1
 : 63	-1.2	0.87	i	-6	-7	99
Cc1ccc(OCC(=O)N(C)CC(=O)Nc2ccc(F)cc2)c([N+](=O)[O-])n1
 : 112	-1.1	0.9	i	-7	-9	101
Cc1ccccc1N1CC(=O)Nc2c(oc3nc(-c4ccccc4)cc(C)c23)C1=O
 : .	.	0.88	i	.	.	102
NS(=O)(=O)c1ccc(NC(=S)NCc2ccc(F)cc2)cc1
 : 143	.	0.88	i	-6	-12	106
CN1C(=O)N(S(=O)(=O)c2ccc(F)c(F)c2F)C(=O)C1(C)C
 : .	-1.2	1	i	.	-13	110
O=C(c1ccc(F)cc1)n1c(=S)nc2ccccn21
 : .	.	1.1	i	.	.	102
CN(CC(=O)NC1CCCCCCC1)S(=O)(=O)c1cnc[nH]1
 : 128	.	0.87	i	7	-1	95
CCCCC(c1nnnn1Cc1ccco1)N1CCN(c2nc3ccccc3s2)CC1 (configuration not stated)
 : .	-0.5	0.93	i	.	12	112
FC(F)(F)c1ccc(CSc2ccccn2)cc1
 : .	.	0.93	i	.	.	97
Cc1onc(C(N)=O)c1C(=O)Nc1ncc(C(F)(F)F)cc1Cl
 : 52	.	0.98	i	42	-3	110
Cc1ccc2c(c1)N(CCC(=O)NC1CC1)C(=O)C(C)O2 (configuration not stated)
 : 72	-1.8	0.87	i	12	-6	103
CCNC(=S)N(CCc1ccc(OC)c(OC)c1)Cc1cc2cc(OC)ccc2[nH]c1=O
 : .	.	1	i	.	1	100
COc1ccc(-c2nn(C)c(=O)[nH]2)cc1
 : .	.	0.99	i	.	.	101
CC(C)Nc1nc(NC(C)(C)C)nc(Oc2ccc(=O)n(-c3ccccc3)n2)n1
 : 125	2.5	0.87	i	-47	-17	99
Cc1ccc(NC(=O)COc2ncnc3sccc23)cc1S(=O)(=O)N(C)C
 : 132	.	1	i	-17	-2	102

Of the compounds above, these have a Cl atom:
The line under a structure holds: Insulin prom inh cell count	GALR2 ag	HSV augment primary fold	HSV augment	Insulin prom inh	PKD1 kinase inh	RGS16-Gao
O=C1CN(C(=O)/C=C/c2ccc(Cl)cc2)c2ccccc2N1
 : 179	.	0.84	i	-17	0	102
CCC1CCCCN1C(=O)Nc1cc(Cl)ccc1OC (configuration not stated)
 : 94	.	0.91	i	-43	5	106
O=C(Nc1ccc(Cl)cc1)N1CCN(c2ccccc2)CC1
 : 127	-0.6	0.9	i	62	1	102
Cc1onc(C(N)=O)c1C(=O)Nc1ncc(C(F)(F)F)cc1Cl
 : 52	.	0.98	i	42	-3	110

(continued)
The line under a structure holds: Insulin prom inh cell count	GALR2 ag	HSV augment primary fold	HSV augment	Insulin prom inh	PKD1 kinase inh	RGS16-Gao
COc1ccc(/C=C/C(=O)OCC(=O)Nc2cc3oc4ccccc4c3cc2OC)cc1
 : .	.	1.1	i	.	2	97
CN1CC(c2ccccc2Cl)C2(COc3ccccc3C2=O)C12C(=O)Nc1ccccc12 (configuration not stated)
 : 47	-0.7	0.84	i	3	-7	103
CCN(CC(=O)Nc1ccc(OC)c(Cl)c1)CC(=O)NC(C)C
 : 117	.	0.99	i	-125	4	101
O=C(NCc1ccc(OC(F)(F)F)cc1)C1CC(c2ccccc2[N+](=O)[O-])=NO1 (configuration not stated)
 : 41	0.7	0.9	i	7	-1	101
CC(=O)c1cccc(CN2CCN(Cc3ccc(C)cc3)C(CCO)C2)c1 (configuration not stated)
 : .	.	0.96	i	.	5	100
CC(C)(C)c1ccc2c(c1)N(CC(=O)O)C(=O)CO2
 : .	-1.3	1.1	i	.	-2	107
CN(C)c1nc(Oc2ccc(OCCOc3ccccc3)nn2)nc(N(C)C)n1
 : 74	.	0.93	i	29	1	106
COc1ccc(CCNC(=O)c2ccc(SC)cc2OC)cc1
 : .	.	1	i	.	0	103
N=C1c2ccccc2CN1c1ccc(S(=O)(=O)N2CCCCC2)cc1
 : 102	.	1.3	i	-33	1	100
Cc1ccc(NC(=O)C(CC(C)C)NC(N)=O)cc1 (configuration not stated)
 : 108	-1.3	0.94	i	13	-2	112
CN(C)c1ccc(NC(=O)c2cccc(N3C(=O)CCC3=O)c2)cc1
 : 110	-0.4	0.89	i	3	-12	98
COc1ccc(CN(C)CCc2ccccn2)cc1OC
 : .	-1.5	0.91	i	.	4	.
COC(=O)c1ccc(C23CC4(C2)[C@H](CN(C)[C@@H]4c2ccccc2)C3c2ccc(Cl)nc2)cc1 (some centres not stated)
 : .	.	0.89	i	.	.	104
Cc1ccc(-n2nc(-c3ccco3)cc2C(=O)O)c(C)c1
 : 117	.	1.1	i	13	-2	90
OC(COCc1ccccc1)CN1CCN(c2ccccc2F)CC1 (configuration not stated)
 : .	-1.8	1	i	.	-14	104
COc1ccc(CCNS(=O)(=O)c2ccc3c(c2)CCN3C(=O)CCC(=O)O)cc1OC
 : 96	-0.2	1	i	44	-8	101
O=C(NC1CCCCC1)NC1CC2CCC(C1)N2C(=O)NCc1ccccc1 (configuration not stated)
 : 82	-2.2	.	.	21	-4	98
CN(Cc1ccccc1)S(=O)(=O)c1cccc2nsnc12
 : 119	.	1	i	45	7	103
Nc1c(-c2ccccc2)n[nH]c1-c1ccccc1
 : 131	-3.2	0.83	i	40	-12	90
COc1ccc(OC)c(-c2cc(C(F)(F)F)c3c(n2)sc2c(O)cc(=O)[nH]c23)c1
 : 157	-0.1	1.1	i	26	0	102
COc1ccc(CNC(=O)CCC(=O)N2CCN(S(=O)(=O)c3ccc(Cl)cc3)CC2)cc1
 : .	.	0.97	i	.	-6	100
COCC(=O)Nc1ccccc1-c1ccccc1
 : 128	.	1.1	i	20	0	108
CCN1CCN(Cc2ccccc2NC(=O)Nc2ccc(C)cc2)CC1
 : 29	-1.9	1.1	i	i	1	101
Cc1cc(N(C)C)c(C#N)c(N2CCOCC2)n1
 : .	-0.2	1.1	i	.	-4	112
CCN(Cc1ccncc1)Cc1cn[nH]c1-c1cc(OC)c(OC)c(OC)c1
 : .	.	0.98	i	.	6	102
CC(C)C1CC(CCN2CCCCC2)(c2ccccc2)CCO1 (configuration not stated)
 : 84	.	1	i	-47	-3	101
Cc1cc(NC(=O)CSc2nccn2C)n(-c2ccccc2)n1
 : .	.	0.95	i	.	.	91
CCS(=O)(=O)N1CCC(C(=O)NCC2CCCO2)CC1 (configuration not stated)
 : .	0.0	0.98	i	.	-6	100
O=C(CSc1nnc(SCc2cccc3ccccc23)s1)N/N=C/C=C/c1ccccc1[N+](=O)[O-]
 : 168	-1.4	0.79	i	0	-8	98
COc1cccc(NC(=O)c2ccccc2SC)c1
 : 65	-2.6	0.86	i	-114	-9	97
CC(C)c1nc(SCC(=O)Nc2c[nH]c(=O)[nH]c2=O)c2cnn(-c3ccccc3)c2n1
 : .	.	0.92	i	.	-7	99
CCCCC(CC)C1OCC(C[N+]2(C)CCOCC2)O1 (configuration not stated)
 : 161	-0.2	1	i	0	4	102
COc1ccc(NC(=O)c2ccc(Oc3ncccn3)cc2)cc1
 : .	.	0.92	i	.	4	100
COc1ccc(N(CC(=O)Nc2ccccc2C(=O)NCc2ccco2)S(C)(=O)=O)cc1
 : 139	-1.4	1.1	i	-47	-1	87
CCCC(=O)Nc1ccc(NC(=O)c2cccs2)cn1
 : 129	-2.4	0.99	i	-170	1	104
O=c1c2ccccc2[nH]c(=S)n1CCCN1CCOCC1
 : .	-3.2	0.94	i	.	-12	98
CC(C)c1ccc(/C=N/NC(=O)c2ccccn2)cc1
 : .	.	0.96	i	.	.	97
N#CCC(=O)Nc1ncn(Cc2ccccc2Cl)n1
 : 87	-0.7	1	i	69	-4	99
COc1cccc(C2C(C#N)=C(C)NC3=C2C(=O)CC(C)(C)C3)c1 (configuration not stated)
 : 94	0.6	1	i	28	-11	109
O=C(N/N=C/c1ccco1)c1ccc2nc[nH]c2c1
 : .	.	1	i	.	.	99
O=C(/C=C\NCC(=O)c1ccccc1)c1ccc2ccccc2c1
 : .	-0.4	1	i	.	-8	121
COc1ccc(-c2cc3ccccc3n2CC(O)Cn2nc(C)cc2C)cc1 (configuration not stated)
 : 88	0.1	0.97	i	-16	3	99
CCOC(=O)C(CCc1nnc(N)s1)C(=O)OCC
 : 78	-1.1	0.98	i	-19	-4	98
CC/C(=N\NC(=O)CNC(=O)/C=C/c1ccco1)c1ccccc1
 : .	-1.8	0.85	i	.	7	109
Cc1cccc(S(=O)(=O)Nc2cccc(-c3cn4ccsc4n3)c2)c1
 : .	-1.2	0.9	i	.	1	104
COc1ccc(CNn2c(-c3cccs3)nc3ccccc3c2=O)cc1OC
 : 139	.	0.7	i	-36	-4	100
COc1ccc(C(=O)CSc2nc(C(C)(C)C)nc3ccccc23)cc1
 : .	.	0.93	i	.	-4	93
CCOc1ccc(CCNC(=O)C2CCCN2C(=O)OCc2ccccc2)cc1OCC (configuration not stated)
 : .	.	1.1	i	.	-3	98
O=C(COc1ccc(Cl)cc1Cl)N1CCN(c2ccccn2)CC1
 : .	.	1	i	.	-3	103
C=C(C)Cn1c(N2CCN(CC)CC2)nc2c1c(=O)[nH]c(=O)n2C
 : .	-1.4	0.69	i	.	-4	106

The listing continues.
The line under a structure holds: Insulin prom inh cell count	GALR2 ag	HSV augment primary fold	HSV augment	Insulin prom inh	PKD1 kinase inh	RGS16-Gao
CC(=O)N1CCc2cc(Br)cc(S(=O)(=O)N3CCN(C(=O)c4ccco4)CC3)c21
 : 157	1.9	1	i	-27	-3	98
Cc1nnc(SCc2nc3ccccc3[nH]2)s1
 : .	-3.8	0.96	i	.	-11	101
COc1ccc(CCNC(=O)Cn2cccc2C(=O)c2ccccc2)cc1OC
 : 155	-0.4	1	i	-16	-2	102
O=c1cc(-c2ccc(O)cc2)oc2ccccc12
 : .	.	1.1	i	.	8	162
O=C1CCCC/C1=C\Nc1ccc(C(=O)O)c(O)c1
 : .	.	1.1	i	.	.	108
Cc1ccc(Sc2ccc(CN3CCCCC3)cc2[N+](=O)[O-])cc1
 : .	.	0.97	i	.	12	96
COc1cc(-c2nc(Cc3c(F)cccc3Cl)no2)cc(OC)c1OC
 : .	-3.1	1.1	i	.	-5	.
CCOC(=O)c1nn(-c2ccc(Cl)cc2)c2nc(Nc3ccccc3)cc(=O)n12
 : 111	-0.3	.	.	-10	12	107
